Bioassay records as filed in PubChem BioAssay.
PV pol inh – poliovirus RdRp elongation inhibitors, primary screen, biochemical, fluorescence polarization, total intensity | % elongation, % (compound at 16.7 µg/mL) | Genome polyprotein (Poliovirus type 1 (strain Mahoney)), P03300 | poliovirus polymerase elongation; hits give low values | 150,000 tested, 0.66% active; in the data active means % elongation below about 90%; further: some results filed as inactive read as strong as hits
MbtI inh – MbtI salicylate synthase inhibitors, primary screen, biochemical, fluorescence intensity; AID 493033, 2011; P9WFX0; inhibition, %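 (about 17 µg/mL by stock and volumes)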; 100,000 tested, 0.89% active; purified MbtI enzyme, fluorescence intensity read-out;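 active means above 50% in both replicates, above 80% if mildly self-fluorescent; inactive means the rest, strongly fluorescent compounds included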;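 further: 0% = mean of negative and 100% = mean of positive controls; one replicate is shown; some compounds called inactive have numbers as strong as hits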
Target sequence (P9WFX0 whole entry, looked up): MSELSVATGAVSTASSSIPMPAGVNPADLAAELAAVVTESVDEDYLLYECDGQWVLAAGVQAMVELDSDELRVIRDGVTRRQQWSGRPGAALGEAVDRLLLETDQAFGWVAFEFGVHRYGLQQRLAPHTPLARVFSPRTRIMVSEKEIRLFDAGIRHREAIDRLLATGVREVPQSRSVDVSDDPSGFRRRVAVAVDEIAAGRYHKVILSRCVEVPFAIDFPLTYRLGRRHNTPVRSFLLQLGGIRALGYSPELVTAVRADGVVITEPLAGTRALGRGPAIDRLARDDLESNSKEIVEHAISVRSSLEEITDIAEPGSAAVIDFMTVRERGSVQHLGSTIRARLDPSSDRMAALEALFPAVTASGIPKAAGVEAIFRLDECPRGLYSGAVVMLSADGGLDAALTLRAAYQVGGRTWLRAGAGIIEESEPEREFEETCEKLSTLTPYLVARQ
MenB inh – M. tuberculosis MenB inhibitors, primary screen, biochemical, absorbance; AID 540299, 2011; inhibition, %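 (about 12 µg/mL by stock and volumes)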; 100,000 tested, 0.43% active; MenB enzyme assay, absorbance read-out; some hits fall short of the stated cut;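 active means mean of two replicates above 30%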;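 further: 0% = no compound and 100% = wells with inactive enzyme; the first replicate is given; strong numbers were not always called active; inactives centre near -10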
Target sequence (P9WNP5 whole entry, looked up): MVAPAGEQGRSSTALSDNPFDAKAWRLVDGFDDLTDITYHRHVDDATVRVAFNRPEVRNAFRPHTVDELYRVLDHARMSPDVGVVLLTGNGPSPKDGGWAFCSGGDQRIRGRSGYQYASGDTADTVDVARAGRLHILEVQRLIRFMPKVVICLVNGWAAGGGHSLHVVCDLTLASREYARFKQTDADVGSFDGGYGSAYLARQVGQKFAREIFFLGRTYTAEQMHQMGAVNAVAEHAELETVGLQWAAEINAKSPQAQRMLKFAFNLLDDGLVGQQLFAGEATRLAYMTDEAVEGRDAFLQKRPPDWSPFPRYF
PV pol inh intensity – second read-out of PV pol inh, no call of its own (marks repeat the call); % elongation; measured here: total intensity read-out; formula for this scale not given here;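 total fluorescence in place of polarization; lower means less elongation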
Numbers without * were called inactive; & = joins results of further samples.

`CCN(Cc1nc(-c2ccc(OC)cc2)no1)S(=O)(=O)c1c(C)cc(C)cc1C` gave PV pol inh 99.0, MbtI inh 6.0, MenB inh -5.9 and PV pol inh intensity 105.0.
Screening Clc1nsc2ccccc12 returned MbtI inh 96.5 and MenB inh -42.2.
For O=C(NCCN1CCOCC1)c1sc2ccccc2c1Cl the results were PV pol inh 101.0, MbtI inh -0.5, MenB inh -11.9 and PV pol inh intensity 101.0.
Cc1c(C(=O)NCc2ccc(OC(C)C)cc2)oc2ccc3c(c12)C=CC(C)(C)O3 was read as PV pol inh 104.0, MbtI inh 9.8, MenB inh 3.0 and PV pol inh intensity 98.0.
CC1CN(C(=O)c2cc3ccccc3oc2=O)CC(C)O1 (stereo not drawn) was read as PV pol inh 107.0, MenB inh -10.1 and PV pol inh intensity 103.0.
`CCn1c2ccccc2c2cc(CN3CCCC3)ccc21` gave PV pol inh 102.0, MbtI inh -39.1, MenB inh -31.1 and PV pol inh intensity 99.0.
For CCc1ccccc1NC(=O)CN1CCN(C(=O)/C=C/c2cc(Cl)c3c(c2)OCCO3)CC1 the results were PV pol inh 105.0, MbtI inh -5.5, MenB inh -10.1 and PV pol inh intensity 109.0.
Screening COc1ccc(CCNS(=O)(=O)c2ccc(C3CNC(=O)C3)cc2)cc1OC (stereo not drawn) returned PV pol inh 100.0, MbtI inh -14.3, MenB inh -15.2 and PV pol inh intensity 102.0.
`Cc1ccc(S(=O)(=O)NC(C)(C)CN2CCCCC2)cc1` gave PV pol inh 101.0, MbtI inh 3.4, MenB inh -21.5 and PV pol inh intensity 98.0.
For CCCOc1cccc(N)c1 the results were PV pol inh 102.0, MbtI inh 7.9, MenB inh 14.1 and PV pol inh intensity 103.0.
For Brc1ccc(-n2c(-c3ccco3)nc3nc4ccccc4nc32)cc1 the results were PV pol inh 105.0, MbtI inh 62.8, MenB inh -9.2 and PV pol inh intensity 110.0.
Screening O=C(COc1ccc(Cl)cc1)Nc1cccc(Cl)c1 returned PV pol inh 101.0, MenB inh -4.6 and PV pol inh intensity 109.0.
O=C(NCCN1C(=O)S/C(=C\c2ccc(Cl)c(Cl)c2)C1=O)C1=COCCO1 was read as PV pol inh 96.0, MbtI inh 19.4, MenB inh 4.1 and PV pol inh intensity 96.0.
O=C(CSc1cccc[n+]1[O-])c1cccs1 was read as PV pol inh 100.0, MbtI inh 97.7* and PV pol inh intensity 103.0.
`Cc1ccc(-c2nc(NCCC3=CCCCC3)c3ccccc3n2)cc1` gave PV pol inh 101.0, MbtI inh 42.8, MenB inh -35.9 and PV pol inh intensity 99.0.

Grouped by structure, those above with an aryl methoxy group.
`CCN(Cc1nc(-c2ccc(OC)cc2)no1)S(=O)(=O)c1c(C)cc(C)cc1C` gave PV pol inh 99.0, MbtI inh 6.0, MenB inh -5.9 and PV pol inh intensity 105.0.
Screening COc1ccc(CCNS(=O)(=O)c2ccc(C3CNC(=O)C3)cc2)cc1OC (stereo not drawn) returned PV pol inh 100.0, MbtI inh -14.3, MenB inh -15.2 and PV pol inh intensity 102.0.

Random excerpt: four compounds from above.
`CCn1c2ccccc2c2cc(CN3CCCC3)ccc21` gave PV pol inh 102.0, MbtI inh -39.1, MenB inh -31.1 and PV pol inh intensity 99.0.
O=C(NCCN1C(=O)S/C(=C\c2ccc(Cl)c(Cl)c2)C1=O)C1=COCCO1 was read as PV pol inh 96.0, MbtI inh 19.4, MenB inh 4.1 and PV pol inh intensity 96.0.
`Cc1ccc(S(=O)(=O)NC(C)(C)CN2CCCCC2)cc1` gave PV pol inh 101.0, MbtI inh 3.4, MenB inh -21.5 and PV pol inh intensity 98.0.
`Cc1ccc(-c2nc(NCCC3=CCCCC3)c3ccccc3n2)cc1` gave PV pol inh 101.0, MbtI inh 42.8, MenB inh -35.9 and PV pol inh intensity 99.0.

The results go on.
Screening O=C(/C=C/c1ccccc1)N1CCN(S(=O)(=O)c2ccc(F)cc2)CC1 returned PV pol inh 102.0, MbtI inh 8.4, MenB inh -15.6 and PV pol inh intensity 103.0.
For CC(=O)Nc1ccc(SCC(=O)N(C)C2CCCCC2)cc1 the results were PV pol inh 103.0, MbtI inh 15.9, MenB inh -5.2 and PV pol inh intensity 102.0.
Screening Cn1nc(C(=O)NCc2cccs2)c2c1-c1ccccc1SC2 returned PV pol inh 101.0, MbtI inh 19.3, MenB inh -3.4 and PV pol inh intensity 100.0.
For CSc1nc2ccccc2c(=O)n1C1CCCCC1 the results were PV pol inh 103.0, MbtI inh 1.6, MenB inh -18.4 and PV pol inh intensity 105.0.
For CCn1cc(C(=O)O)c(=O)c2ccc(C)nc21 the results were PV pol inh 102.0&98.0, MbtI inh -21.8&-9.8, MenB inh -5.2&20.6 and PV pol inh intensity 102.0&102.0.
For COc1ccc(-c2ccc(Nc3ccc(C(=O)N4CCCCCC4)cc3)nn2)cc1 the results were PV pol inh 104.0, MbtI inh 13.9, MenB inh -45.2 and PV pol inh intensity 102.0.
Screening CN(C)CCN1C(=O)C2C3C=CC(C3)C2C1=O (stereo not drawn) returned PV pol inh 104.0, MbtI inh -14.7, MenB inh -63.4 and PV pol inh intensity 100.0.
`C=CCn1c(COc2ccc(CC)cc2)nnc1SCC(=O)N(C)C1CCS(=O)(=O)C1` (stereo not drawn) gave PV pol inh 104.0, MbtI inh -10.2, MenB inh -23.4 and PV pol inh intensity 102.0.
Screening CC(=O)Oc1ccc(C(c2ccc(OC(C)=O)cc2)c2ccccn2)cc1 returned PV pol inh 99.0&100.0, MbtI inh -0.7&-20.6, MenB inh 7.4&4.0 and PV pol inh intensity 101.0&100.0.
`CC(C)Cn1c(N)c(C(=O)NCc2ccc3c(c2)OCO3)c2nc3ccccc3nc21` gave MbtI inh -5.9 and MenB inh -15.9.
Screening CC1(C)CC(=O)C(C(C2=C(O)CC(C)(C)CC2=O)C(O)CO)C(=O)C1 (stereo not drawn) returned PV pol inh 101.0, MbtI inh -2.3, MenB inh -12.8 and PV pol inh intensity 104.0.
`C=CCc1cc(/C=C2/SC(=O)N(CC(=O)N3CCCC3)C2=O)cc(OCC)c1O` gave PV pol inh 103.0, MbtI inh 0.0, MenB inh -20.5 and PV pol inh intensity 103.0.
`O=C(Cc1cn2ccsc2n1)NC(c1ccccc1)c1ccccc1` gave PV pol inh 100.0, MbtI inh -9.8 and PV pol inh intensity 96.0.
Screening CCOC(=O)c1cc(-c2ccc(S(=O)(=O)N(C)Cc3cnn(-c4ccccc4)c3)s2)on1 returned PV pol inh 99.0, MbtI inh -9.8, MenB inh 0.0 and PV pol inh intensity 103.0.
`CC(C)CN1C(=O)/C(=C\c2ccc(-c3ccc(S(N)(=O)=O)cc3)o2)SC1=S` gave PV pol inh 86.0, MbtI inh 10.8, MenB inh -33.7 and PV pol inh intensity 222.0.

In the list so far, these contain a thiophene ring, fused or not:
For O=C(NCCN1CCOCC1)c1sc2ccccc2c1Cl the results were PV pol inh 101.0, MbtI inh -0.5, MenB inh -11.9 and PV pol inh intensity 101.0.
O=C(CSc1cccc[n+]1[O-])c1cccs1 was read as PV pol inh 100.0, MbtI inh 97.7* and PV pol inh intensity 103.0.
Screening Cn1nc(C(=O)NCc2cccs2)c2c1-c1ccccc1SC2 returned PV pol inh 101.0, MbtI inh 19.3, MenB inh -3.4 and PV pol inh intensity 100.0.
Screening CCOC(=O)c1cc(-c2ccc(S(=O)(=O)N(C)Cc3cnn(-c4ccccc4)c3)s2)on1 returned PV pol inh 99.0, MbtI inh -9.8, MenB inh 0.0 and PV pol inh intensity 103.0.

The list continues.
For Cc1ccc(C)n1-c1ccc(C(=O)NCc2cccnc2)cc1 the results were PV pol inh 104.0, MbtI inh 7.0, MenB inh -19.0 and PV pol inh intensity 106.0.
CCOn1c(=O)c(-c2ccccc2)[n+]([O-])c2ccccc21 was read as PV pol inh 103.0, MbtI inh 1.6, MenB inh -14.6 and PV pol inh intensity 101.0.
Screening CN(C)C1(CNC(=O)c2cccc(NS(=O)(=O)c3ccc4c(c3)OCCO4)c2)CCCCC1 returned PV pol inh 100.0, MbtI inh 0.8, MenB inh 9.6 and PV pol inh intensity 103.0.
`c1ccc2c(c1)Oc1ccccc1C2N1CCOCC1` gave PV pol inh 103.0, MbtI inh -8.7, MenB inh -19.0 and PV pol inh intensity 103.0.
`COc1ccc(NC(=O)c2ccc3cccc(O)c3n2)cc1Cl` gave PV pol inh 101.0, MbtI inh -0.1, MenB inh -18.2 and PV pol inh intensity 100.0.
`O=C(O)CC1NC(=O)NC1=O` (stereo not drawn) gave PV pol inh 98.0, MbtI inh -2.4, MenB inh -33.3 and PV pol inh intensity 102.0.
Screening Cc1ccccc1CN1C(=O)C2(OCCCO2)c2ccccc21 returned PV pol inh 102.0, MbtI inh 12.1, MenB inh 1.5 and PV pol inh intensity 102.0.
Screening O=C(C1c2ccccc2Oc2ccccc21)N1CCCCC1 returned PV pol inh 100.0, MbtI inh -20.0, MenB inh -28.1 and PV pol inh intensity 100.0.
For Cc1nc(N2CCN(C)CC2)sc1C(=O)N(C)C the results were PV pol inh 111.0, MbtI inh 5.7, MenB inh -0.2 and PV pol inh intensity 109.0.
Screening O=C(NCCCN1CCCC1=O)c1cccc(Oc2ccccc2)c1 returned PV pol inh 104.0, MbtI inh -0.2 and PV pol inh intensity 106.0.
For CCSc1nnc2c(n1)OC(c1cc3c(cc1Cl)OCO3)Nc1ccccc1-2 (stereo not drawn) the results were PV pol inh 101.0, MbtI inh 8.4, MenB inh -10.9 and PV pol inh intensity 103.0.
O=C(COC(=O)C12CC3CC(CC(Br)(C3)C1)C2)NC1CC1 was read as PV pol inh 103.0, MbtI inh -10.9 and PV pol inh intensity 105.0.
`O=C(Nc1ccc(Cl)cc1Cl)c1cc2nc3c(c(C(F)(F)F)n2n1)CCc1ccccc1-3` gave PV pol inh 101.0, MbtI inh 10.0, MenB inh -7.2 and PV pol inh intensity 98.0.
CCCCC/C=C\C/C=C\C/C=C\CC1OC1CCCC(=O)O (stereo not drawn) was read as PV pol inh 102.0&100.0, MbtI inh -27.5, MenB inh 5.5 and PV pol inh intensity 103.0&101.0.
`O=C(Nc1ccccn1)C1(c2ccccc2)CCCC1` gave PV pol inh 100.0, MbtI inh -1.4, MenB inh 5.9 and PV pol inh intensity 104.0.
`O=C(NCCCN1CCN(c2ccccc2F)CC1)C1CCN(S(=O)(=O)c2cccc3cccnc23)CC1` gave PV pol inh 101.0, MbtI inh -2.6, MenB inh -14.0 and PV pol inh intensity 100.0.
`O=C(O)c1cc(C=Nc2ccc3c(c2)OCCOCCOCCO3)ccc1O` gave PV pol inh 102.0, MbtI inh -1.4, MenB inh -20.0 and PV pol inh intensity 101.0.
`Cc1cccc(N(C)S(=O)(=O)c2ccc3c(c2)C(C)(C)C(=O)N3C)c1` gave PV pol inh 103.0, MbtI inh -5.4, MenB inh -13.1 and PV pol inh intensity 107.0.
C=CCN(Cc1nc(-c2ccccc2)no1)C(=O)COc1ccccc1 was read as PV pol inh 103.0, MbtI inh -12.6, MenB inh -39.2 and PV pol inh intensity 99.0.
O=C1CCC2(C(=O)NC34CC5CC(CC(C5)C3)C4)SCCN12 (stereo not drawn) was read as PV pol inh 107.0, MbtI inh -8.2, MenB inh -29.0 and PV pol inh intensity 107.0.
For COc1ccc(OCC#CCOc2ccccc2)cc1 the results were PV pol inh 102.0, MbtI inh 3.4, MenB inh -9.6 and PV pol inh intensity 101.0.
`O=C1CSC(=O)N1Cc1cc2c(cc1Cl)OCO2` gave PV pol inh 100.0, MbtI inh 0.6, MenB inh -14.9 and PV pol inh intensity 99.0.
C=CCn1c(=O)/c(=C/c2ccc(-c3ccc(Br)cc3)o2)s/c1=C(/C#N)c1nnc2n1CCCCC2 was read as PV pol inh 44.0, MbtI inh 3.4, MenB inh 8.0 and PV pol inh intensity 234.0.
For CC(=O)N1CCC2(CC1)c1cccn1-c1ccccc1CN2C(=O)Nc1ccc(C)cc1C the results were PV pol inh 102.0, MbtI inh 12.9, MenB inh -36.4 and PV pol inh intensity 104.0.
Cc1ccc(C=Nc2ccccc2C(N)=O)s1 was read as PV pol inh 99.0, MbtI inh -205.1, MenB inh -37.1 and PV pol inh intensity 101.0.
`O=S(=O)(NC1CCCCC1N1CCC(O)CC1)c1ccc(Cl)cc1` (stereo not drawn) gave PV pol inh 100.0, MbtI inh -3.2, MenB inh 3.7 and PV pol inh intensity 103.0.
Screening Cc1ccc(Nc2nnc(SC(C)C(N)=O)s2)cc1 (stereo not drawn) returned PV pol inh 102.0, MbtI inh 12.2, MenB inh -9.8 and PV pol inh intensity 106.0.
For Cc1ccc(C)c(S(=O)(=O)N2CCCN(C)CC2)c1 the results were PV pol inh 100.0, MbtI inh -4.8, MenB inh -29.9 and PV pol inh intensity 100.0.
For CC(C)C(NC(=O)/C=C/c1ccc(Br)o1)c1ccc2c(c1)OCCCO2 (stereo not drawn) the results were PV pol inh 102.0, MbtI inh 8.8, MenB inh -23.5 and PV pol inh intensity 106.0.
